Screening results deposited in PubChem BioAssay by Fisher Drug Discovery Resource Center.
NPYLR7 agonist – activates Aedes aegypti NPYLR7 receptor | activation, % at 10 µM | HEK293T NPYLR7/Galpha15, GCaMP6s calcium fluorescence | 0.15% of 270,000 active; in the data active = activation above about 40%;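 note: 0% = vehicle and 100% = reference agonist at the receptor; some compounds past the cut are filed as inactive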
NPYLR7 agonist max-min – further read-out of NPYLR7 agonist, marked with its call; activation, %; measured here: Max-Min RFU normalised activation; some inactives read as strong as hits;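 span of the calcium signal over five minutes; 0% = vehicle and 100% = native peptide agonist; compound fluorescence can raise it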
Active calls of the source: *; & = joins results of further samples. An excerpt; the hit share may differ from the screen's.

Sample of the layout, 19 compounds:
1: CCn1cc2nc(OC)c(CNC(=O)c3cnn4ccn(C)c34)cc2c1O
2: CS(=O)(=O)c1ccc2nc(NC(=O)c3ccc([N+](=O)[O-])s3)sc2c1
3: CN(C)c1cccc(C(=O)N2CCN(C(=O)c3ccc(O)cc3)CC2)c1
4: CN(Cc1ccc(Oc2ncccn2)cc1)C1CCCN(C2Cc3ccccc3C2)C1 (stereo unspecified)
5: Cc1cccc(-c2nnc(C(C)N(C)Cc3nc4ccccc4c(=O)[nH]3)o2)c1 (stereo unspecified)
6: O=C(O)C=C1OC(=O)c2ccccc21
7: CCC(C)NC(=O)C(C)Oc1ccc(Br)cc1Br (stereo unspecified)
8: CSc1cccc(NC(=O)CCc2csc(NC(=O)c3ccc[nH]c3=O)n2)c1
9: Cc1noc(C)c1CN(C)C(=O)c1cc(C(C)C)[nH]n1
10: N#CC(C(=O)c1cn(-c2cccc(Br)c2)nn1)c1nc(-c2ccccn2)cs1 (stereo unspecified)
11: Cc1ccc(NCN2C(=O)C3C4C=CC(C4)C3C2=O)cc1C (stereo unspecified)
12: COc1cc(Nc2ccc(NC(=O)c3ccc4c(c3)OCO4)cc2)nc(C)n1
Screen / compound no.,1,2,3,4,5,6,7,8,9,10,11,12
NPYLR7 agonist,2,3,-9,4,0,-10,-4,-11,8,1,-2,6
NPYLR7 agonist max-min,-2,3,-11,0,1,-14,-6,-16,6,10,-1,1

13: O=c1[nH]c(O)c(N=Nc2c(Br)cc(Cl)cc2Br)c(=O)[nH]1
14: O=C1CCc2c(ccc3ccccc23)O1
15: CCc1nc2c(OCC(=O)c3ccc(F)cc3)cccn2c1N(C)C(=O)C(C)C
16: CCCCN(C)c1c(C)nc2ccc(C(=O)NCCc3ccccn3)cn12
17: c1ccc(Cc2n[nH]c(Cn3c(C4CC4)nc4ccccc43)n2)cc1
18: CC1CN(C2CCN(C(c3ccccc3)C(C)C)CC2)CCO1 (stereo unspecified)
19: c1ccc(COC2CCN(Cc3nc(-c4cccs4)no3)CC2)cc1
Screen / compound no.,13,14,15,16,17,18,19
NPYLR7 agonist,-1,1,2,-6,-2,3,2
NPYLR7 agonist max-min,-3,-7,7,-10,-2,1,1

This part in full, from the start:
1: CCn1cc2nc(OC)c(CNC(=O)c3cnn4ccn(C)c34)cc2c1O
2: CS(=O)(=O)c1ccc2nc(NC(=O)c3ccc([N+](=O)[O-])s3)sc2c1
3: CN(C)c1cccc(C(=O)N2CCN(C(=O)c3ccc(O)cc3)CC2)c1
4: CN(Cc1ccc(Oc2ncccn2)cc1)C1CCCN(C2Cc3ccccc3C2)C1 (stereo unspecified)
5: Cc1cccc(-c2nnc(C(C)N(C)Cc3nc4ccccc4c(=O)[nH]3)o2)c1 (stereo unspecified)
6: O=C(O)C=C1OC(=O)c2ccccc21
7: CCC(C)NC(=O)C(C)Oc1ccc(Br)cc1Br (stereo unspecified)
8: CSc1cccc(NC(=O)CCc2csc(NC(=O)c3ccc[nH]c3=O)n2)c1
9: Cc1noc(C)c1CN(C)C(=O)c1cc(C(C)C)[nH]n1
10: N#CC(C(=O)c1cn(-c2cccc(Br)c2)nn1)c1nc(-c2ccccn2)cs1 (stereo unspecified)
Screen / compound no.,1,2,3,4,5,6,7,8,9,10
NPYLR7 agonist,2,3,-9,4,0,-10,-4,-11,8,1
NPYLR7 agonist max-min,-2,3,-11,0,1,-14,-6,-16,6,10

11: Cc1ccc(NCN2C(=O)C3C4C=CC(C4)C3C2=O)cc1C (stereo unspecified)
12: COc1cc(Nc2ccc(NC(=O)c3ccc4c(c3)OCO4)cc2)nc(C)n1
13: O=c1[nH]c(O)c(N=Nc2c(Br)cc(Cl)cc2Br)c(=O)[nH]1
14: O=C1CCc2c(ccc3ccccc23)O1
15: CCc1nc2c(OCC(=O)c3ccc(F)cc3)cccn2c1N(C)C(=O)C(C)C
16: CCCCN(C)c1c(C)nc2ccc(C(=O)NCCc3ccccn3)cn12
17: c1ccc(Cc2n[nH]c(Cn3c(C4CC4)nc4ccccc43)n2)cc1
18: CC1CN(C2CCN(C(c3ccccc3)C(C)C)CC2)CCO1 (stereo unspecified)
19: c1ccc(COC2CCN(Cc3nc(-c4cccs4)no3)CC2)cc1
20: CC1CCc2c(C(=O)OCC(=O)NCc3cccs3)csc2C1 (stereo unspecified)
Screen / compound no.,11,12,13,14,15,16,17,18,19,20
NPYLR7 agonist,-2,6,-1,1,2,-6,-2,3,2,-3
NPYLR7 agonist max-min,-1,1,-3,-7,7,-10,-2,1,1,-7

21: COC(=O)[C@@H]1C[C@@H](NC(=O)c2ccc(CN3CCC(C)CC3)o2)CN1C
22: O=C(C1COc2ccccc2O1)N(CCO)Cc1cccs1 (stereo unspecified)
23: Oc1c2cccnc2cn1C1COC2(CCCC2)C1 (stereo unspecified)
24: COc1ccc(/C=C2\CCCC3C2=Nc2ncnn2C3c2ccc(OC)cc2)cc1 (stereo unspecified)
25: Cc1ncc(CNC(=O)Nc2ccc(N(C)C)c(Cl)c2)s1
26: CN(Cc1cnn(-c2ccccc2)c1)C(=O)C1CNCCO1 (stereo unspecified)
27: CCCCN1CCC(NS(=O)(=O)Cc2cccc(OC)c2)CC1
28: CN(C(=O)C1=COC2=NC(=O)N(Cc3ccc(S(C)(=O)=O)cc3)CCN12)c1ccccc1
29: CCOC(=O)CNC(=O)N1CCC(CCCc2ccccc2)(C(=O)OCC)CC1
30: CCc1nc2n(n1)C(=O)C(C(c1ccc(Cl)cc1)N1CCN(C(C)=O)CC1)S2 (stereo unspecified)
Screen / compound no.,21,22,23,24,25,26,27,28,29,30
NPYLR7 agonist,2,-2,3,3,6,-9,-6,-3,-2,-6
NPYLR7 agonist max-min,2,-4,-1,3,3,-13,-8,-4,-15,-12

31: CC(Cl)C(=O)N1CCC2(CC1)SCCN2C(=O)c1ccc(C(F)(F)F)cc1 (stereo unspecified)
32: COc1ncccc1-c1ccc(-c2ncc(C)cn2)cc1
33: O=C1CSC(=S)N1N1C(=O)c2ccccc2C1=O
34: COc1cccc(-n2ccc3c(cnc4nc(C(F)(F)F)nn43)c2=O)c1
35: O=C(NC(Cn1ccnc1)c1ccccc1)c1ccc(-n2cnnn2)cc1 (stereo unspecified)
36: Cc1nn2c(NCCOCCO)c3c(nc2c1-c1ccccc1)CCCC3
37: CN(CC(=O)N1CCNC1=O)C(c1ccccc1)c1ccccc1
38: Cc1ccc(-c2csc(-n3[nH]c(C)c(N=Nc4ccc([N+](=O)[O-])cc4Cl)c3=O)n2)cc1
39: CC(=O)NCCc1nc2ccccc2n1CCCOc1cccc2ccccc12
40: Cc1cc(=O)n2[nH]c(CC(=O)N3CCC4(CCOCC4)CC3)nc2n1
Screen / compound no.,31,32,33,34,35,36,37,38,39,40
NPYLR7 agonist,11,14,2,-1,12,2,4,9,-15,-1
NPYLR7 agonist max-min,14,6,2,3,2,5,-1,11,-15,3

41: Cc1ccc(-n2ccnc(SCC(=O)NCCc3ccccc3)c2=O)cc1F
42: O=c1ccc(-c2ccccc2)nn1Cc1ccncc1
43: CCOc1ccc(C(C2Sc3nc(C)nn3C2=O)N2CC(C)OC(C)C2)cc1 (stereo unspecified)
44: Cc1cc(NC(=O)CNC(c2ccccn2)C(C)C)ccc1Cl (stereo unspecified)
45: CC/C=C(\C)CN1CCN(C)C2(CCN(C(=O)c3ccccc3F)CC2)C1
46: CC(C)(C)c1ccc(C(=O)N(Cc2cccc(OS(=O)(=O)c3cccc(C(F)(F)F)c3)c2)Cc2ccco2)cc1
47: O=c1[nH]c(=S)c2c(n1Cc1ccccc1)CCC2
48: O=S(=O)(CCO)Cc1sccc1Br
49: CCCCc1cnc2c(c1SCc1cc(OC)cc(OC)c1)c(=O)n(C)c(=O)n2C
50: O=C(O)C1CN(C(=O)c2cc(-n3cccn3)ccc2Cl)CCN1 (stereo unspecified)
Screen / compound no.,41,42,43,44,45,46,47,48,49,50
NPYLR7 agonist,5,12,0,18,6,3,0,1,2,8
NPYLR7 agonist max-min,15,5,-1,14,-7,20,-2,1,5,6

51: COc1cc(-c2cc3c(cn2)ncn3Cc2ccc(OC)c(OC)c2)ccc1O
52: CN(C)c1ccc(CNC(=O)NCc2cc(F)ccc2F)cn1
53: COc1ccc(C2SCCN2C(=O)Nc2cccc(Br)c2)cc1OCc1ccccc1 (stereo unspecified)
54: COc1ccc(CN2CCn3nc(C(=O)O)cc3C2=O)cc1
55: CN(CCOc1ccc(-c2ccc3c(c2)OCO3)cc1C(C)(C)C)CC(=O)O
56: COCC(=O)N(Cc1ccc(F)cc1)Cc1cc(NC(=O)NC(C)C)ccc1N(C)C
57: Oc1cccc(-c2cn(CCCc3nc4ccc(F)cc4[nH]3)nn2)c1
58: Cc1ccc(C)c(NC(=O)CSc2nc3c(c(=O)n2Cc2ccccc2)SCC3)c1
59: Cc1nn(C)c(Cl)c1C1CCCN1C(=O)c1ccn[nH]1 (stereo unspecified)
60: Nc1cccc(-c2cnc3ccc(NCC4CC4)nn23)c1
Screen / compound no.,51,52,53,54,55,56,57,58,59,60
NPYLR7 agonist,5,8,15,-12,-12,2,-1,-3,-6,-3
NPYLR7 agonist max-min,-3,4,19,-8,-14,-2,-5,-12,-7,-6

61: O=C(N1CCN(C(=O)N2c3ccccc3CCc3ccccc32)CC1)N1c2ccccc2CCc2ccccc21
62: CN(C(=O)c1ccc(CSc2ncn[nH]2)o1)C1Cc2ccccc2C1
63: Cc1cc(OCCCC(=O)NCc2ccc(F)cc2)ccc1Cl
64: O=C(c1cc2nc(-c3cccs3)cc(C(F)(F)F)n2n1)N1CCN(c2ccccc2)CC1
65: COc1cccc(COC(CN2CCN(C(=O)NCCc3ccc4c(c3)OCO4)CC2)c2ccc(Cl)cc2)c1 (stereo unspecified)
66: Nc1c(C(=O)Nc2cccc(Cl)c2)c2ccccn2c1C(=O)c1ccc(Cl)cc1
67: O=C(NCc1coc(-c2ccccc2)n1)C1CCC(=O)N(Cc2ccccn2)C1 (stereo unspecified)
68: Cn1ccnc1C(NC(=O)c1cccc(S(=O)(=O)N2CCCCC2)c1)c1ccccc1F (stereo unspecified)
69: N#CCOc1ccc(NS(=O)(=O)c2cc(F)cc(F)c2)cc1
70: CCc1cnc(N2CCC(N3CCCC(C(=O)NC4CC4)C3)CC2)nc1 (stereo unspecified)
Screen / compound no.,61,62,63,64,65,66,67,68,69,70
NPYLR7 agonist,-1,11,7,-8,3,-3,4,-2,-4,12
NPYLR7 agonist max-min,-7,8,5,-13,-4,-9,3,-2,-7,7

71: Cn1cc(-c2noc(-c3cc4c(s3)CCC4)n2)cn1
72: COc1ccc(CN(CC(C)C)C(=O)C2CC2)cc1OS(=O)(=O)c1cccc(C(F)(F)F)c1
73: CC1(C(=O)NCc2ccc3c(c2)OCO3)CCN1CC1CCCCC1 (stereo unspecified)
74: Fc1cccc(Cl)c1-c1nccn1Cc1cnc2ccccn12
75: Cc1cnc(C)c(N2CCN(Cc3nc4ccccc4n3C(C)C)CC2)n1
76: Cc1nc(SCC(=O)c2cccs2)c2c3c(sc2n1)CCCC3
77: Cc1cn2c(nc3c2c(=O)n(CC(C)C)c(=O)n3C)o1
78: CC(c1ccccc1)n1c(=O)c(C(=O)NCC2CCCO2)nn(-c2ccccc2)c1=O (stereo unspecified)
79: O=C(O)c1cc(-c2cccc3cccnc23)cs1
80: CC(=O)Nc1ccc(NC(=O)CSc2nnc3sc4ccccc4n23)cc1
Screen / compound no.,71,72,73,74,75,76,77,78,79,80
NPYLR7 agonist,-2,31,0,-1,3,1,1,-7,2,-3
NPYLR7 agonist max-min,297,30,-4,-5,2,6,1,0,-7,-1

81: O=C(CSc1nnc2n1CCCCC2)N1N=C(c2cccs2)CC1c1cccs1 (stereo unspecified)
82: CCc1ccc(CN(C)S(=O)(=O)c2ccc(Cl)s2)cc1
83: Cc1nccc(-c2cccc(NC(=O)c3cccnc3Nc3cc(Cl)ccc3C)c2)n1
84: COc1cccc(C(CN2CCN(S(=O)(=O)c3ccc(OC)c(OC)c3)CC2)OCc2cccc(Cl)c2)c1 (stereo unspecified)
85: CCCN(Cc1ccc(OC)cc1)C(=O)c1ccc(C(C)=O)s1
86: NC(=O)C(NCc1cc(Br)ccc1O)c1ccccc1 (stereo unspecified)
87: N#CC(C#N)=C1C=C(c2ccc3c(c2)OCCO3)Oc2ccccc21
88: CCN(CC)C(=O)c1cc(NC(=O)c2ccccc2Br)ccc1N1CCCC1
89: CCCCc1ccc(-n2nc3cc(Cl)c(NC(C)=O)cc3n2)cc1
90: O=C(C1CCCC1)N1CCCC(OCc2cccc(OC(F)(F)F)c2)C1 (stereo unspecified)
91: Cc1ccc(-c2nnc(-c3ccc(C(=O)NC4CC4)cc3)o2)cc1
92: O=C(NCc1ccccc1Cl)c1nnn(-c2ccccc2)c1CSc1ncccn1
93: Cc1cc(NC(=O)CN2CCCC(Cn3cncn3)C2)n(C)n1 (stereo unspecified)
Screen / compound no.,81,82,83,84,85,86,87,88,89,90,91,92,93
NPYLR7 agonist,0,6,0,29,-2,8,-2,1&-13,-9,-5,2,-2,3
NPYLR7 agonist max-min,6,7,-3,15,-4,1,0,1&-20,-15,-2,-2,-6,1
